# ClpP mod: qHTS Assay for Activators of ClpP; 1.9% of 340,000 active; purified B. subtilis ClpP, FRET peptide cleavage, 20 min; Potency, µM (series often up to 57.5 µM), for the others: top-dose activity change, negative = active; AID 651965, 2013; ATP-dependent Clp protease proteolytic subunit (Bacillus subtilis (strain 168)), P80244; active = well fitted falling curve with a large enough effect; inconclusive = small, poorly fitted or top-dose-only effect; inactive = no such curve, though single readings can be large or run the other way; note: potency is the fitted concentration of half-maximal effect; the source files actives as falling curves though it sought activators and does not explain the sign; nearly all actives have a fitted effect of over 65% in size; many hits overshoot -100%
# Target sequence (P80244 whole entry, looked up): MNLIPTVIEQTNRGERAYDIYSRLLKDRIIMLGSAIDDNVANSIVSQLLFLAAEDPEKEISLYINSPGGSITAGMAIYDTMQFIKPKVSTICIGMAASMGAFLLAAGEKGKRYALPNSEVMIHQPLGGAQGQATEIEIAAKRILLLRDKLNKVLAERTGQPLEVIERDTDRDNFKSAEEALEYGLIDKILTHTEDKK
#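 Purified B. subtilis ClpP, 10 microg/mL final in Tris/HCl pH8 with KCl, BSA, glycerol and Tween-20, cleaved an Abz/nitrotyrosine-quenched decapeptide. Fluorescence (ex 320, em 430) was read at 0 and 20 min at room temperature. Delta was normalized to 5.8 microM ADEP and DMSO/no-enzyme controls.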
# Menin-MLL FL inh: displaces fluorescein MLL peptide from human menin | Fluorescence polarization, fluorescein-MLL peptide displacement from menin | FP activity change, % at 61.4 µM | 290,000 tested, under 10 active; inconclusive = falling polarisation curve, or a change in total fluorescence; inactive = total fluorescence flat and polarisation flat or rising; no compound was filed as active; the % refers to the polarisation; negative = inhibition;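 note: % of control where 0% means no effect; inhibitors lower the polarisation; unlabelled MLL peptide was the positive control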
# D2 potentiator: potentiates the human D2 dopamine receptor allosterically; P14416; DiscoveRx D2 beta-arrestin cells, luminescence, 90 min; 100% = 57 uM dopamine signal; potentiation, % (no concentration beside the values); 0.23% of 360,000 active; AID 624464; active = potentiation of 50% or more; inconclusive = 30% to 50%; inactive = 30% or less;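 note: compound concentration not given in the record; tested on top of an EC20 dose of dopamine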
#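 PathHunter beta-arrestin assay in DiscoveRx D2 cells. Compounds were added with an EC20 of dopamine (50 nM final) for 90 min at 37 deg C. Luminescence was read 1 h after detection reagent, with 57 uM dopamine as the EC100 control.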
# gsp antagonist: gsp mutant antagonism | Potency, µM (top dose mostly 76.9 µM), for inactives: at the top dose activity change, negative = inhibition, hits mostly inhibitors | gsp-mutant cells, cAMP HTRF, 30 min; control for the full effect not named in the record | 0.4% of 340,000 active; active = falling curve of any shape with a large fitted effect; inconclusive = falling curve, mostly with a smaller effect; inactive = flat or rising curve; cell line not stated here;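 note: intracellular cAMP measured with PDE inhibitor Ro 20-1724 present during compound exposure; potency is the fitted concentration of half-maximal effect; % is set by controls: 0 for no effect and ±100 for the full control effect; nearly all actives have a fitted effect of over 65% in size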
#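 HTRF cAMP measurement after 30 min RT detection following 30 min, 37C compound treatment alongside […] (added as 300 uM solution) in G418-selected cells seeded at 2000/well and grown 16–24 h.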
# Sfp PPTase inh: inhibitors of Bacillus subtilis Sfp phosphopantetheinyl transferase; AID 1490; 3.5% of 310,000 active; Q9F4F7; Biochemical Sfp PPTase activity, qHTS; Potency, µM, without a hit: max response, negative = inhibition, hits mostly inhibitors; active = well fitted inhibition curve with a large enough effect; inconclusive = small, poorly fitted or top-dose-only effect, or another doubt; inactive = no such curve, though single readings can be large or run the other way;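 note: the enzyme is Sfp with the accession as filed and its product quenches rhodamine fluorescence; potency is the fitted concentration of half-maximal effect; 0% = enzyme reaction without inhibitor and -100% = no enzyme wells; top concentration of the series not given in the record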
#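 Buffer: 50 mM Hepes-Na pH 7.6, 10 mM MgCl2, 0.01% Nonidet P-40, 0.01% BSA. Enzyme 15 nM, pre-exposed to compound 15 min; substrates then added and fluorescence change tracked over 30 min.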
# TRPV1 PAM: human TRPV1 potentiation. AID 540277. 0.02% of 320,000 active. TRPV1-expressing cells, Fluo-8 calcium influx, capsaicin EC20 potentiation; host cell line not named in the record; control for the full effect not named in the record. potentiation, % at 8.33 µM; active means potentiation above 80%; inconclusive means 30% to 80%; inactive means below 30%; note: 0% is about no effect
# Target sequence (Q8NER1 whole entry, looked up): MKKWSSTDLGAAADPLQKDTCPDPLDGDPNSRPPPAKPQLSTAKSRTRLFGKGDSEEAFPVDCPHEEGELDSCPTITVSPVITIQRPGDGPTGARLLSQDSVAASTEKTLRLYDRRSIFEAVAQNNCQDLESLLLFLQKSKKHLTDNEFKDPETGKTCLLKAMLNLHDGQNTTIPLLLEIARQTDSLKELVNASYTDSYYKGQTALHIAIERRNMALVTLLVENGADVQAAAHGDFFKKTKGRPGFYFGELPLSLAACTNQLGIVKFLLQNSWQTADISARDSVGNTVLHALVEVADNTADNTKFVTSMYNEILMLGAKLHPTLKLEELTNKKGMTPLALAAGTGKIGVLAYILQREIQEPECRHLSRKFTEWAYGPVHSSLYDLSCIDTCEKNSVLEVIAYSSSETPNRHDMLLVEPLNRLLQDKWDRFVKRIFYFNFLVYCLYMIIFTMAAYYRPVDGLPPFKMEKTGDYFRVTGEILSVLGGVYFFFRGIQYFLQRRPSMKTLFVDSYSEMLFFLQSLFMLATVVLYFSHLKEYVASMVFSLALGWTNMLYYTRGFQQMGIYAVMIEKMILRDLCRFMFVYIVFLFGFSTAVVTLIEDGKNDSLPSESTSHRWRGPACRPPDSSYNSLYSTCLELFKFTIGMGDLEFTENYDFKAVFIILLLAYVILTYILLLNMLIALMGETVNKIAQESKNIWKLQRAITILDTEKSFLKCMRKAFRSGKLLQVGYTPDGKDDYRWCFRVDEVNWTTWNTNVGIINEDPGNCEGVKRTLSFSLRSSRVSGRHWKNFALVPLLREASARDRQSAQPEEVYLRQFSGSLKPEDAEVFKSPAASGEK
#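 TRPV1-expressing cells were cultured overnight at 35.5C and loaded with Fluo-8 calcium dye for 40 to 90 min at room temperature. After a 10 s baseline, compound was added and calcium influx was read kinetically for 3 min (ex 480/em 520 nm).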
# gsp ag: agonists of gsp mutant (McCune-Albright syndrome); gsp mutant cells, cAMP HTRF, 30 min; control for the full effect not named in the record; Potency, µM (top dose mostly 76.9 µM), for the others: top-dose activation (cAMP increase), hits mostly activators; 0.13% of 340,000 active; AID 624287; active = well fitted activation curve with a large enough effect; inconclusive = small, poorly fitted or top-dose-only effect, or another doubt; inactive = no such curve, though single readings can be large or run the other way; cell line not stated here;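 note: phosphodiesterase inhibitor Ro 20-1724 added with compounds to block cAMP breakdown; potency is the fitted concentration of half-maximal effect; nearly all actives have a fitted effect of over 60% in size; about a fifth of the inactives were tested at one dose only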
#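 Cells in DMEM/10% FBS with G418 were pretreated with compounds in DMSO plus […] (300 uM stock) for 30 min at 37C. cAMP was measured by HTRF (cAMP-d2 plus anti-cAMP antibody-K) after 30 min at room temperature.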
# Numbers without * were called inactive; ? = inconclusive; nt = no result given; & = joins results of further samples; [ ] = remark or other dose.
SMILES,ClpP mod,Menin-MLL FL inh,D2 potentiator,gsp antagonist,Sfp PPTase inh,TRPV1 PAM,gsp ag
COC(=O)C1=C(C)N=c2s/c(=C/c3cccs3)c(=O)n2C1c1ccc(F)cc1 (stereo unspecified),-0.1%,4.8,-0.9,-18.6%,-5.4%,10.0,25.4%
COC(=O)C1=C(C)Nc2ncnn2C1c1ccc(C)o1 (stereo unspecified),0.5%,-2.6,-1.2,-8.4%,1.5%,3.7,-1.5%
CC1(C)CC(=O)C=C(Nc2ccc(O)cc2)C1,-2.3%,nt,-1.6,nt,nt,nt,?
Cc1cc(C(=O)Nc2cccc([N+](=O)[O-])c2)c(C)o1,2.6%,4.0,-4.3,11.9%,19.3%,6.0,-3.1%
COc1cc(OC)c(OC)cc1CN1CCCC(C(=O)N2CCCC2)C1 (stereo unspecified),0.5%,4.7,-5.5,6.5%,-23.7%,-8.8,5.5%[15.4 µM]
Cc1ccc(S(=O)(=O)N2CCCOC2CNC(=O)C(=O)NCc2cccs2)cc1 (stereo unspecified),1.2%,8.9,2.2,9.4%,-4.5%,?,-41.3%[inhibitor]
N#Cc1nc(COc2ccccc2)oc1NCCCn1ccnc1,2.4%,-4.5,-18.1,12.6%,18.4%,-2.0,-18.0%
O=C1c2cccnc2C(O)N1Cc1ccccc1 (stereo unspecified),-0.7%,-7.1,-6.7,-0.4%,6.9%,-4.4,3.0%
CCC1(CC)NC(=O)N(CC(=O)OC(C)C(=O)Nc2ccc(S(N)(=O)=O)cc2)C1=O (stereo unspecified),-0.6%,nt,-4.6,nt,nt,nt,-28.9%
Brc1ccc(-c2nn3c(-c4ccccn4)nnc3s2)o1,-15.2%,2.7,-6.2,2.7%,8.91µM*,-20.7,12.0%
O=C(Nc1cccc(S(=O)(=O)N2CCOCC2)c1)c1ccc2ccccc2n1,-4.3%,6.7,-14.7,?,6.4%,-6.3,?
COc1ccc(S(=O)(=O)N(C)C)cc1NC(=O)Cc1ccc(S(=O)(=O)N2CCOCC2)s1,-2.7%,nt,-20.9,3.2%,nt,-4.0,-12.9%

# Looked up above.
# Result for N#Cc1nc(COc2ccccc2)oc1NCCCn1ccnc1 in D2 potentiator: -18.1
# Result for O=C1c2cccnc2C(O)N1Cc1ccccc1 (stereo unspecified) in D2 potentiator: -6.7

# The results go on:
SMILES,ClpP mod,Menin-MLL FL inh,D2 potentiator,gsp antagonist,Sfp PPTase inh,TRPV1 PAM,gsp ag
Cc1cc(=O)[nH]c(Nc2cccc(C(F)(F)F)c2)n1,0.7%,0.0,-39.2,-4.8%,-13.7%,2.9,-4.2%
CC(C)C(=O)NC(=O)[C@@H]1CCCN1C(=O)/C=C/c1ccccc1,-1.1%,3.0,-19.0,2.2%,14.8%,18.3,nt
CCOC(=O)c1c(C)[nH]c(C)c1C(=O)CN1C(=O)NC2(CCCCCC2)C1=O,0.2%,nt,0.3,-8.0%,nt,3.9,1.6%
CCCN1C(=O)c2cc(C(=O)NC3CCCC3)ccc2C1O (stereo unspecified),-2.8%,1.8,-6.3,2.0%,8.5%,-9.1,0.1%
COc1ccc(Cn2c(=S)[nH]c3cc(C(=O)NCCCN4CCOCC4)ccc3c2=O)cc1,0.2%,1.9,-2.1,-19.3%,3.5%,-2.6,3.2%[15.4 µM]
CN(C)S(=O)(=O)N1CCN(CC(O)COc2ccc(-c3ccccc3)cc2)CC1 (stereo unspecified),-2.5%,-1.8,-3.0,-1.7%,-4.0%,-0.9,10.8%
COCCn1c(=O)[nH]c2cc(C(=O)N3CCN(c4cccc(C)c4C)CC3)ccc2c1=O,nt,1.9,0.5,-11.5%,23.6%,6.6,3.2%
CC(C)COP(=O)(c1ccc(N(C)C)cc1)C(Nc1ccccc1)c1ccccc1 (stereo unspecified),3.2%,1.8,-15.5,0.7%,-6.3%,-12.3,-20.9%
Cc1c(C(c2ccc(O)cc2)c2c(C)n(C)n(-c3ccccc3)c2=O)c(=O)n(-c2ccccc2)n1C,nt,-1.0,-3.2,4.5%,10.9%,2.6,-4.6%[15.4 µM]
CC(NC(=O)c1ccco1)C1CCCO1 (stereo unspecified),1.8%,1.3,-0.6,5.3%,14.8%,-2.3,1.1%
CCOc1ccc(NC(=O)CN(C)C(=O)c2ccc(OCc3ccccc3)c(OC)c2)cc1OCC,-2.8%,nt,3.7,-1.7%,nt,19.2,-53.2%[inhibitor]
O=C(COc1ccc(Cl)cc1)NNC(=O)c1cccnc1,nt,0.3,-2.2,-1.1%,23.4%,-1.3,11.6%[15.4 µM]
O=C(NC1CC1)c1cccc(NC(=O)C2CCN(S(=O)(=O)c3ccccc3C(F)(F)F)CC2)c1,-2.3%,nt,-3.5,nt,nt,nt,-1.7%
Cc1ccccc1NC(=O)Cn1cnc2c(oc3nc4c(cc32)COC(C)(C)C4)c1=O,-9.8%,2.3,-14.4,5.7%,13.1%,5.6,-0.4%
Clc1nccc(NCc2ccccc2)n1,-2.6%,nt,-7.8,10.0%,nt,nt,4.7%[15.4 µM]
CC(=O)N1CCN(C(=O)c2ccc3c(c2)OCCO3)CC1,-0.8%,-1.3,-7.6,5.2%,3.7%,-6.8,-1.6%
O=C(C1=C[C@H](c2coc3ccccc3c2=O)C[C@H](OCc2ccc(CO)cc2)O1)N1CCN(Cc2ccccc2)CC1,1.7%,-1.5,-17.4,?,-10.1%,-19.7,20.9%
O=C(CSc1ccccc1C(=O)O)Nc1cccc(C(=O)O)c1,-1.0%,0.6,-15.2,5.6%,1.0%,-7.5,-0.1%
COc1cc(/C=N/NC(=O)Cc2c[nH]c3ccccc23)cc(OC)c1OC,-3.1%,-1.4,-0.4,10.9%,-6.6%,4.6,31.1%
COC(=O)c1c(NC(=O)C(C)C)sc2c1CCN(Cc1ccccc1)C2,-15.4%,-7.2,-11.1,-17.0%,-14.4%,11.4,-15.0%
NS(=O)(=O)c1ccc(CCNC(=O)c2cc3ccccc3oc2=O)cc1,?,-2.3,-7.0,-0.3%,5.7%,3.9,4.5%[15.4 µM]
O=c1[nH]cnc2c1c(-c1ccccc1)cn2-c1ccccc1,-0.8%,-3.2,-12.6,-14.5%,-6.6%,-3.1,5.9%
Cc1nc(SCC(=O)NC(=O)NCc2ccco2)nc(C)c1C,1.1%,-0.8,-26.6,-15.8%,?,-10.8,16.5%[15.4 µM]
Cc1cccc(-c2nnc(SCCOc3ccc4c(C)cc(=O)oc4c3)o2)c1,10µM*,-3.3,-1.8,-1.8%,0.9%,-6.1,8.1%
Cc1ccc(C2=NS(=O)(=O)N(C)C(C(=O)NC3CCCC3)=C2)cc1,-5.3%,-3.9,-7.0,-12.9%,6.4%,-5.4,-49.8%[inhibitor]
O=S(=O)(c1ccc(F)cc1)N1CCN(c2ncccn2)CC1,-11.4%,6.0,-6.8,10.8%,18.2%,2.8,25.3%
CC(C)c1nc2sc3c(=O)n(N)cnc3c2c2c1COC(C)(C)C2,15.8µM*,-1.3,-13.3,30.5%,1.5%,-8.9,-59.0%[inhibitor]
COc1cc(N)c2ncccc2c1OC,nt,nt,5.8,-20.0%,nt,nt,-18.3%
COc1ccc2nc(/C=N/NC(=O)[C@H](CCSC)NC(=O)OC(C)(C)C)ccc2c1,8.91µM*,8.5,4.6,-3.2%,?,-4.8,-0.6%
O=C(NCC(c1ccco1)N1CCCC1)c1ccccc1Sc1ccc(C(F)(F)F)cc1[N+](=O)[O-] (stereo unspecified),0.7%,nt,-8.4,-0.6%,nt,16.5,-5.3%[15.4 µM]
COc1ccc(-c2nnc3ccc(SCC(=O)Nc4cc(C)on4)nn23)cc1OC,nt,1.9,1.2,8.1%,23.2%,-14.7,-10.6%[15.4 µM]
CC(C)CCNC(=O)c1ccc2c(c1)ncn2C1CCCCC1,0.5%,-2.2,-7.7,-13.1%,-17.9%,-11.1,9.9%
CCC1(C(=O)c2ccccc2)C2c3cc(Br)ccc3OC(=O)C21C(=O)N1CCOCC1 (stereo unspecified),0.8%,1.5,-10.2,-4.8%,-2.9%,-19.0,2.0%
CCCCOc1ccc(NC(=O)C(=O)NCCC2=CCCCC2)cc1,1.3%,0.8,-7.1,8.7%,7.0%,-6.1,12.9%
Cc1nnc2n(-c3ccccc3)c(=O)c3c4c(sc3n12)COC(C)(C)C4,-0.4%,-0.8,-14.5,-7.7%,-10.8%,-6.1,16.9%
O=C(NNc1nc(-c2ccccc2)cs1)c1ccco1,-3.9%,-1.3,28.5,0.0%,-23.5%,26.6,0.0%
Cc1nn(C)cc1C1C(C#N)=C(N)N(c2ccc(F)c([N+](=O)[O-])c2)C2=C1C(=O)CCC2 (stereo unspecified),-2.6%,-1.5,26.9,0.6%,-10.8%,11.0,13.0%
O=C(NCc1ccccc1)c1c(F)c(F)c(F)c(F)c1F,1.0%,5.4,9.3,8.1%,11.0%,-11.4,-0.5%
CCOc1ccc(C(=O)n2cc(C(=O)OC)c3ccccc32)cc1OCC,0.5%,-0.4,-9.6,-9.7%,6.9%,-7.1,2.3%[15.4 µM]
CCN(CC)S(=O)(=O)c1ccc(C(=O)NNC(=O)c2cccs2)cc1,1.5%,-0.8,-5.2,8.2%,21.0%,5.4,10.8%[15.4 µM]
CCOC(=O)C1CCCN(CC(O)COC(c2ccccc2)c2ccccc2)C1 (stereo unspecified),nt,0.8,-12.1,-3.8%,14.2%,-14.4,9.1%[15.4 µM]
O=C(NCc1ccco1)/C(=C/c1cccc([N+](=O)[O-])c1)NC(=O)c1ccco1,0.7%,0.5,-6.2,-0.8%,6.3%,-9.7,15.0%[15.4 µM]
CC1CCC(C(=O)NC(C(=O)NCCCN2CCOCC2)C(C)C)CC1 (stereo unspecified),0.6%,1.7,-9.1,4.5%,8.3%,-17.6,-26.2%
Oc1cc(O)c2c(c1)O[C@H](c1ccc(O)c(O)c1)[C@@H](O)C2,0.7%,1.2&-1.0&-3.4,12.3,-4.4%,-18.4%&-3.3%,3.2,nt
O=C(CCc1nc2ccccc2s1)c1ccccc1,-4.4%,2.9,5.7,10.1%,-0.8%,-1.7,?

# Screening data: PubChem, National Center for Advancing Translational Sciences (NCATS)
